B2AR ag: beta2AR agonists driving receptor internalization, primary screen, cell-based, FAP fluorogen, flow cytometry. Beta-2 adrenergic receptor (Homo sapiens), P07550. Am2.2-beta2AR cells; reference of the scale not given here. response, % (no concentration beside the values). 340,000 tested, 0.43% active. AID 504454, 2011;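 active means response above a set limit, near 3 SD of response in nonfluorescent compounds, cut at about 42% in these data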;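 further: stock transfer was 100 nL into about 11 µL; a reference agonist was the positive control; negative values mostly stem from fluorescent compounds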
rRNA inh HTS: reduced GFP signal of wild-type E. coli, primary screen, bacterial rRNA inhibitor project, GFP/RFP fluorescence, OD600, single point; GFP signal change (wild-type ribosome), % (test concentration not listed); 350,000 tested, 1.6% active; AID 720706, 2013; E. coli WT GFP vs humanized-ribosome RFP mutants, 24 h; stronger effect = lower value; DMSO median 0, no signal -100;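 active means significant combined selectivity score with lowered wild-type GFP, culture density cut under 30%, mutant RFP and density less affected; inactive means any of these conditions unmet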; further: one replicate is shown; some compounds called inactive have numbers as strong as hits
FGF22 binding: binders of human FGF22 protein, primary screen, FGF22 synaptogenesis inhibitor project, biophysical, thermal shift, single point; Fibroblast growth factor 22 (Homo sapiens), Q9HCT0; recombinant FGF22 thermal shift, SYPRO orange fluorescence; percent of sucrose octasulfate shift, DMSO zero; calls only at 9.99 µM; 340,000 tested, 1.5% active;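 active means melting point raised past a set limit in the mean and every replicate; three in four hits are not shown here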
E coli growth: E. coli growth inhibition, primary screen, OD600 | Escherichia coli growth, 23 h; stronger effect = lower value | 330,000 tested, 0.21% active | OD600 absorbance (concentration not given with the values);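 active means OD600 absorbance below the run mean of sample wells minus 3.6 SD, in any replicate, cut at about 0.56 in these data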;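 further: stock transfer was 300 nL into about 60 µL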
HNF4A DNA FP: change in binding of human HNF4A to DNA, primary screen, biochemical, fluorescence polarization, FITC-DNA. Hepatocyte nuclear factor 4-alpha (Homo sapiens), P41235. AID 1224865, 2016. 1 h. 360,000 tested, 0.3% active. activity change, % at 10 µM; in the data active means activity change above about 30%, passing the limit was not always enough;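 further: controls were the assay level and a saturating level of protein; the project sought stronger binding though the title names inhibitors; some compounds called inactive have numbers as strong as hits; positive values seem to mean higher polarization but the record does not say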
Target sequence (P41235 whole entry, looked up): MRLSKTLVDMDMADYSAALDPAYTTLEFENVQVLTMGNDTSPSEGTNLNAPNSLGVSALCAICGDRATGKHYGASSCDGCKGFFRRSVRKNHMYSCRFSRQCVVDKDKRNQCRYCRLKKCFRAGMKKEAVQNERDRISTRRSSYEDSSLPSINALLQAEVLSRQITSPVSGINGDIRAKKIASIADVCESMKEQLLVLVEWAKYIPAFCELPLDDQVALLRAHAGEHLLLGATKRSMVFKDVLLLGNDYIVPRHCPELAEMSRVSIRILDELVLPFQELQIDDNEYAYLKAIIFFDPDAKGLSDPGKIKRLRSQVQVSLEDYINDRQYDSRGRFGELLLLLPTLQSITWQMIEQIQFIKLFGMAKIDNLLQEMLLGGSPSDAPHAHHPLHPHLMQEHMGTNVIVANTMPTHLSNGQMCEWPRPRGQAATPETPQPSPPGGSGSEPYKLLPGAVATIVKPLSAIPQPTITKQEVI
UCH37 inh: inhibitors of human UCH37 deubiquitinase, primary screen, biochemical, Ub-AMC cleavage, fluorescence. purified proteasome/UCH37. inhibition, % (no concentration beside the values). 330,000 tested, 0.33% active. AID 588478, 2011;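 active means mean of two replicates above 20%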;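 further: 0% = compound-free wells with enzyme and 100% = wells lacking proteasome; stock transfer was 100 nL into about 20 µL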
Target sequence (Q9Y5K5 whole entry, looked up): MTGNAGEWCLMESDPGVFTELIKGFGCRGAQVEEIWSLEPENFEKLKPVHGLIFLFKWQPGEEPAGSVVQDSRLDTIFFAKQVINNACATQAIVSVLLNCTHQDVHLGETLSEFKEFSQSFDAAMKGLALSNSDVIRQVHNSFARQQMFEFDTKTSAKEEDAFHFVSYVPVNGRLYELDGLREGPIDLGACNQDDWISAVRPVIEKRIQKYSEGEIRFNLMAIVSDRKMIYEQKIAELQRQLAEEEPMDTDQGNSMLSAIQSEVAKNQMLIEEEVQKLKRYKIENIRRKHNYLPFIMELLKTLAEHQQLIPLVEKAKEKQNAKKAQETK
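Material: human UCH37 enzyme supplied as purified proteasome complex / Amount: 0.15 nM proteasome as dispensed / Buffer or medium: pH 7.4 Tris-HCl (50 mM) with ovalbumin, ATP-MgCl2, DTT / Times: preincubation 30 min, reaction 25 min, room temperature / Technique: AMC fluorescence from Ub-AMC cleavage, excitation 355 nm, emission 460 nm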
ALR H2O2 inh: inhibitors of human ALR sulfhydryl oxidase, primary screen, biochemical, H2O2 detection, HRP-luminol luminescence, single point; 290,000 tested, 3.8% active; purified ALR, DTT oxidation; inhibition, % (no concentration beside the values); FAD-linked sulfhydryl oxidase ALR (Homo sapiens), P55789;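 active means mean and each replicate at 75% or more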;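 further: stock transfer was 7.5 nL into about 7.5 µL; 0% = neutral wells and 100% = wells with inactivated enzyme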
Target sequence (P55789 whole entry, looked up): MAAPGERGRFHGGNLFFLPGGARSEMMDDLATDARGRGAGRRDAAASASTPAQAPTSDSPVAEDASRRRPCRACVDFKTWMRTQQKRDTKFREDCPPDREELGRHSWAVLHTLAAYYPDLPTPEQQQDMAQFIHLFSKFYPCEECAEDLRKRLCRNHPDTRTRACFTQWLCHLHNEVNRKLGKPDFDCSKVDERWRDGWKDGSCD
rRNA inh HTS OD600: recorded beside rRNA inh HTS, whose call it bears; OD600 change, %; measured here: OD600 growth;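 optical density of the mix in the first replicate; 0 = DMSO median and -100 = no signal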
rRNA inh HTS RFP: recorded beside rRNA inh HTS, whose call it bears; RFP signal change, %; measured here: RFP humanized mutant strains;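 first replicate; 0 = DMSO median and -100 = no signal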
* hit, by the source's call; i = inactive; . = not tested or not shown; & = joins results of further samples. An excerpt; the hit share may differ from the screen's.

SMILES	B2AR ag	rRNA inh HTS	rRNA inh HTS OD600	rRNA inh HTS RFP	FGF22 binding	E coli growth	HNF4A DNA FP	UCH37 inh	ALR H2O2 inh
Cc1cc(C)c2nc(N3CCC(C(=O)NCc4ccccn4)CC3)sc2c1	4	-7	-9	-1.8	i	0.66	1.8	7.8	1
CN1N=C2c3ccccc3CCCC2C1c1ccc(F)cc1 (stereo not drawn)	-1	-40*	-29*	-4.4*	i	0.65	1.1	-3.9	-4
Cc1ccccc1C(=O)N1CCC(C(=O)Nc2ccc(C(C)C)cc2)CC1	0	-2	-24	4.7	i	0.72	0.9	1.8	-3
CNC(=O)c1csc(-c2cccs2)n1	-8	-4	-4	4.4	i	0.72	-2.3	1.9	-5
COc1cc(S(=O)(=O)Nc2c(C)nn(C)c2C)ccc1NC(C)=O	-3	8	12	1.3	i	0.7	-1.8	-3.2	6
Oc1ccc(N=Cc2ccc(O)c(O)c2)cc1	-13	.	.	.	.	0.68	-2.2	9.8	99*
COc1ccccc1N(CC(=O)N/N=C/c1ccc(C(=O)O)cc1)S(=O)(=O)c1ccc(C)cc1	-9	0	0	1.2	i	.	-0.8	.	-3
COc1ccc2c(c1)C=C([C@@H]1C[C@H]3CN(c4ccccc4)C(=O)[C@]34CCCN14)CO2	-11	-15	-22	4.4	.	0.68	-4.6	0.9	-4
CCOC(=O)C(=O)Nc1cc(C(=O)OC)cc(C(=O)OC)c1	1	16	9	-1.6	i	0.63	-7.8	1.0	2
CS(=O)(=O)Nc1cccc2cccnc12	15	.	.	.	.	0.69	3.4	4.8	-5
Cc1cccc(NCc2cccc3ccccc23)n1	-11	-17	-18	-5.3	i	0.6	-0.3	0.8	6
CCCC1(C(=O)OC)NC(c2cc(OC)c(OC)c(OC)c2)C2C(=O)N(CC)C(=O)C21 (stereo not drawn)	1	.	.	.	.	0.69	-1.5	-1.6	-4
COC(=O)c1ccc(OCC2c3cc(OC)c(OC)cc3CCN2C(=O)c2ccco2)cc1 (stereo not drawn)	3	-29	-21	15	i	0.66	-3.4	0.1	-2
CC(Oc1ccccc1F)C(=O)NNC(=O)c1ccc(F)c(S(=O)(=O)N2CCOCC2)c1 (stereo not drawn)	11	3	4	2.2	i	0.73	1.2	1.7	-14
COc1ccc(-c2noc(-c3cc(C)cc(C)c3)n2)cc1OC	7	2	8	-3.0	i	0.78	-0.8	2.7	-6

Two of the compounds above, in markdown.
| mol | B2AR ag | rRNA inh HTS | rRNA inh HTS OD600 | rRNA inh HTS RFP | FGF22 binding | E coli growth | HNF4A DNA FP | UCH37 inh | ALR H2O2 inh |
| --- | --- | --- | --- | --- | --- | --- | --- | --- | --- |
| CN1N=C2c3ccccc3CCCC2C1c1ccc(F)cc1 (stereo not drawn) | -1 | -40* | -29* | -4.4* | i | 0.65 | 1.1 | -3.9 | -4 |
| COc1ccc2c(c1)C=C([C@@H]1C[C@H]3CN(c4ccccc4)C(=O)[C@]34CCCN14)CO2 | -11 | -15 | -22 | 4.4 | . | 0.68 | -4.6 | 0.9 | -4 |

The list goes on.
SMILES	B2AR ag	rRNA inh HTS	rRNA inh HTS OD600	rRNA inh HTS RFP	FGF22 binding	E coli growth	HNF4A DNA FP	UCH37 inh	ALR H2O2 inh
Fc1ccc2cnc(C3=CCCCC3)cc2c1	-9	8	-1	5.5	i	0.63	-1.1	1.2	-2
CC1C(=O)N(Cc2cn(CCC3OCCCO3)nn2)CCS(=O)(=O)N1Cc1ccc(-c2ccc(F)cc2)cc1 (stereo not drawn)	.	6	-18	-5.8	i	.	1.4	.	.
CCOc1ccccc1C(=O)N1CCCCC1C (stereo not drawn)	9	.	.	.	.	0.67	1.3	-0.3	-6
O=C(Cc1ccccc1F)Nc1nc(-c2cccs2)cs1	2	.	.	.	.	0.72	0.7	1.6	-10
CCN(CC)CC(=O)Nc1nc(-c2ccc(Cl)cc2)cs1	-1	.	.	.	.	0.7	2.8	0.3	5
CCCOc1ccc(Cn2ccnc2)cc1[N+](=O)[O-]	-6	.	.	.	.	0.63	-1.2	4.1	-2
Cc1noc(C)c1NC(=O)N(C)C[C@H]1Oc2c(NC(=O)C3CCCCC3)cccc2C(=O)N([C@H](C)CO)C[C@@H]1C	-4	2&4	5&-13	-1.0&3.0	i	0.71	-0.8	1.2	.
COc1ccc(NC(=O)COC(=O)CCCC2=NS(=O)(=O)c3ccccc3N2)cc1Cl	1	-9	-17	6.3	i	0.7	1.5	0.7	-4
Cc1ccnc(NC(=O)c2oc3ccccc3c2C)c1	-13	1	1	-1.4	i	0.67	3.8	3.6	10
Cc1cccc(-c2nc(N)nc(N)n2)c1	-6	-2	7	-2.2	i	0.66	-1.9	1.1	-1
Cc1cc(OCC(O)CNC(C)c2ccccc2)ccc1C(C)C (stereo not drawn)	42	-36	-61	-3.9	i	0.58	5.7	2.4	-19
O=C(c1ccccc1)N1CCn2c1nc1ccccc12	-7	13	9	1.1	i	0.71	-0.4	1.5	-7
C=C1C(=O)OC2C1C(OC(=O)C(C)=CC)CC(=C)C1C(O)C3OC3(C)C21O (stereo not drawn)	4	12	3	5.1	i	.	-2.0	.	.
CC1(/[N+]([O-])=C/c2ccccc2F)CCCCC1=O (stereo not drawn)	-14	-5	-1	-3.3	i	0.72	1.9	-1.4	-14
O=C(O)c1cccc(N/N=C/c2ccc(F)c(F)c2)c1	2	3	3	-1.6	.	.	-3.0	.	49
Clc1ccccc1-c1nn2c(COc3ccccc3)nnc2s1	5	.	.	.	.	0.69	4.8	3.1	-6
O=C(NCSC1=NCCS1)c1ccccc1	-6	.	.	.	.	0.65	1.4	-0.3	-9
COc1cc(C(=O)OCCN2CCCCC2)ccc1O	6	.	.	.	.	0.73	2.0	-1.5	50
Cc1ccc(CNC(=O)c2cnc(-c3ccccn3)nc2C(F)(F)F)cc1	-3	.	.	.	.	0.73	1.7	0.6	-4
Nc1ccccc1SCC(=O)N1CCc2ccccc21	16	.	.	.	.	0.69	-2.5	1.7	-1
Cn1nnc(NC(=O)/C=C/c2ccco2)n1	-6	11	9	4.7	i	0.68	-2.6	9.3	0
N#Cc1c(-c2ccc3c(c2)OCO3)ccn2nc(-c3cccc(C(F)(F)F)c3)nc12	-2	.	.	.	.	0.72	4.9	-374	-15
CCN(C[C@H]1N[C@@](C)(C(=O)OC)[C@H]2C(=O)N(Cc3ccccc3)C(=O)[C@@H]12)C(=O)C1CCCCC1	-7	4	1	4.0	i	0.67	2.1	0.5	.
CCNC(=O)c1oc2c(c1C)C(=O)CC(C)(C)C2	-6	.	.	.	.	0.67	-1.5	5.7	-6
COc1ccc(OC)c(NC(=O)C2=C(C)NC(=O)NC2c2cccs2)c1 (stereo not drawn)	-4	4	-3	2.5	i	0.74	4.1	7.7	.
Cc1ccc(S(=O)(=O)Nc2ccccc2N2CCCCC2)cc1	-3	-2	-23	-1.9	i	0.69	-2.4	5.2	12
Cc1cc([N+](=O)[O-])c(N2CCC[C@@H]2C(=O)O)c([N+](=O)[O-])c1	-4	.	.	.	.	0.69	5.6	6.4	-8
Cc1ccc(NC(=O)c2cc(-n3cnnc3)ccc2Cl)cc1	15	.	.	.	.	0.68	-4.7	0.2	-7
COC(=O)CN1C(=O)c2cccc3cccc1c23	6	-3	-1	0.0	i	0.64	5.4	-50	-16
O=C(Cn1nc(Cc2cccnc2)c2ccccc2c1=O)NCCCN1CCCC1=O	0	7	12	-1.0	i	0.74	1.8	3.5	-16

Twelve structures already listed, sorted by molecular weight, high to low:
SMILES	B2AR ag	rRNA inh HTS	rRNA inh HTS OD600	rRNA inh HTS RFP	FGF22 binding	E coli growth	HNF4A DNA FP	UCH37 inh	ALR H2O2 inh
CCN(C[C@H]1N[C@@](C)(C(=O)OC)[C@H]2C(=O)N(Cc3ccccc3)C(=O)[C@@H]12)C(=O)C1CCCCC1	-7	4	1	4.0	i	0.67	2.1	0.5	.
O=C(Cn1nc(Cc2cccnc2)c2ccccc2c1=O)NCCCN1CCCC1=O	0	7	12	-1.0	i	0.74	1.8	3.5	-16
N#Cc1c(-c2ccc3c(c2)OCO3)ccn2nc(-c3cccc(C(F)(F)F)c3)nc12	-2	.	.	.	.	0.72	4.9	-374	-15
Cc1ccc(CNC(=O)c2cnc(-c3ccccn3)nc2C(F)(F)F)cc1	-3	.	.	.	.	0.73	1.7	0.6	-4
Clc1ccccc1-c1nn2c(COc3ccccc3)nnc2s1	5	.	.	.	.	0.69	4.8	3.1	-6
Cc1ccc(S(=O)(=O)Nc2ccccc2N2CCCCC2)cc1	-3	-2	-23	-1.9	i	0.69	-2.4	5.2	12
Cc1ccc(NC(=O)c2cc(-n3cnnc3)ccc2Cl)cc1	15	.	.	.	.	0.68	-4.7	0.2	-7
Cc1cc([N+](=O)[O-])c(N2CCC[C@@H]2C(=O)O)c([N+](=O)[O-])c1	-4	.	.	.	.	0.69	5.6	6.4	-8
Nc1ccccc1SCC(=O)N1CCc2ccccc21	16	.	.	.	.	0.69	-2.5	1.7	-1
COc1cc(C(=O)OCCN2CCCCC2)ccc1O	6	.	.	.	.	0.73	2.0	-1.5	50
CCNC(=O)c1oc2c(c1C)C(=O)CC(C)(C)C2	-6	.	.	.	.	0.67	-1.5	5.7	-6
Cn1nnc(NC(=O)/C=C/c2ccco2)n1	-6	11	9	4.7	i	0.68	-2.6	9.3	0

Additional structures follow.
SMILES	B2AR ag	rRNA inh HTS	rRNA inh HTS OD600	rRNA inh HTS RFP	FGF22 binding	E coli growth	HNF4A DNA FP	UCH37 inh	ALR H2O2 inh
Cn1c(=N)n(CC(O)c2ccco2)c2ccccc21 (stereo not drawn)	4	.	.	.	.	0.66	-0.9	0.1	-3
O=C(Nc1nccs1)C1CCCN(S(=O)(=O)c2cccc3cccnc23)C1 (stereo not drawn)	6	0	-5	1.8	i	0.67	3.6	2.0	-7
O=C(OCC(=O)c1ccc[nH]1)c1ccc2ccccc2n1	2	-4	-4	-1.3	i	0.64	2.8	0.1	-18
O=C(COc1ccc(C(=S)N2CCOCC2)cc1)N1CCOCC1	14	3	6	-2.1	i	0.71	1.2	6.4	-1
COc1ccc(CNC(=O)CSc2nc3ccc(N)cc3s2)cc1	-8	.	.	.	.	0.7	1.6	5.6	98*
Cc1ccc(C)c(NC(=S)N2CCC(NC(=O)c3ccc(F)cc3)CC2)c1	11	-1	-5	-3.2	i	0.66	3.5	4.6	.
Cc1ccc(/C=N/NC(=O)c2c(C)nc3ccc(Br)cn23)cc1	13	18	22	4.5	i	.	3.1	.	-6
CCN(C(=O)COC(=O)CCCc1c[nH]c2ccccc12)c1c(N)n(Cc2ccccc2)c(=O)[nH]c1=O	-5	10	8	-1.8	i	0.69	3.5	3.5	.
CCCCNc1nc2sc3c(c2c(=O)n1-c1cccc(Cl)c1)CCN(C)C3	5	-7	-4	-1.7	i	0.63	25	-38	.
COc1ccc([C@H]2C[C@H](n3cc(COC(=O)c4ccccc4)nn3)[C@@H](O)CN2C(=O)c2cccs2)cc1	.	0	5	-1.3	i	.	4.8	.	.
Nc1c(-c2ccccc2)nc(Cl)nc1-c1ccccc1	-7	.	.	.	.	0.68	1.2	i	3

Source: PubChem (several laboratories)
